# Bioassay records from PubChem BioAssay.
# ALR inh = inhibitors of human ALR sulfhydryl oxidase, primary screen, biochemical, H2O2 detection, HRP-luminol luminescence, single point; FAD-linked sulfhydryl oxidase ALR (Homo sapiens), P55789; purified ALR, DTT oxidation; inhibition, % (test concentration not listed); actives 3.8% (n = 290,000); AID 485317, 2010;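 active = mean and each replicate at 75% or more; inconclusive = only one of the two met; inactive = neither met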;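 also: stock transfer was 7.5 nL into about 7.5 µL; 0% = neutral wells and 100% = wells with inactivated enzyme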
# Target sequence (P55789 whole entry, looked up): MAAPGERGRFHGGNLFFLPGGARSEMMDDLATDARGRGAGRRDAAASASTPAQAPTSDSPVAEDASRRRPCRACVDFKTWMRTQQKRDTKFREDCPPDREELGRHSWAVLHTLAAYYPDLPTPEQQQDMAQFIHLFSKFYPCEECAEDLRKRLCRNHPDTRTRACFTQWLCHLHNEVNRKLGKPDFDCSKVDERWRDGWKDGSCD
# HNF4A DNA FP = change in binding of human HNF4A to DNA, primary screen, biochemical, fluorescence polarization, FITC-DNA | actives 0.3% (n = 360,000) | 1 h | activity change, % at 10 µM | Hepatocyte nuclear factor 4-alpha (Homo sapiens), P41235; in the data active = activity change above about 30%, passing the limit was not always enough;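 also: controls were the assay level and a saturating level of protein; the project sought stronger binding though the title names inhibitors; some compounds called inactive have numbers as strong as hits; positive values seem to mean higher polarization but the record does not say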
# Target sequence (P41235 whole entry, looked up): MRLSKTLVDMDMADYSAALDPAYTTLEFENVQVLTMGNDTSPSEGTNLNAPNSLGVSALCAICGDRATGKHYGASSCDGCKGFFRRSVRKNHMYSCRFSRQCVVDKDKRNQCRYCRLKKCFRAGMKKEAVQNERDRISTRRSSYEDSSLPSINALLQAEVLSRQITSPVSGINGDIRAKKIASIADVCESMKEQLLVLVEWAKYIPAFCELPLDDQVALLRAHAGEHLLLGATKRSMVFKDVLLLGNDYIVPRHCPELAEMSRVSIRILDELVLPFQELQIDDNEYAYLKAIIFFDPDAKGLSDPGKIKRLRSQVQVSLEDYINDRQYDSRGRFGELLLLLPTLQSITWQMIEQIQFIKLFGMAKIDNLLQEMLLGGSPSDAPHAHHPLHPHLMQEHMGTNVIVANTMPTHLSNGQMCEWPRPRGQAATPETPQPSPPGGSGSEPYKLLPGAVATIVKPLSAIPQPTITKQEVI
# FGF22 binding = binders of human FGF22 protein, primary screen, FGF22 synaptogenesis inhibitor project, biophysical, thermal shift, single point. Fibroblast growth factor 22 (Homo sapiens), Q9HCT0. recombinant FGF22 thermal shift, SYPRO orange fluorescence; percent of sucrose octasulfate shift, DMSO zero. calls only at 9.99 µM. actives 1.5% (n = 340,000);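 active = melting point raised past a set limit in the mean and every replicate; inconclusive = no clear call; three in four hits are not shown here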
# Target sequence (Q9HCT0 whole entry, looked up): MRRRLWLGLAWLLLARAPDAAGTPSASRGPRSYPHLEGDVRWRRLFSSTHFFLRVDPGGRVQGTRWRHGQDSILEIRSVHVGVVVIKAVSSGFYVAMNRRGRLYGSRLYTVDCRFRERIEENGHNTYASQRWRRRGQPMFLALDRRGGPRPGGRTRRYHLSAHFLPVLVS
# Vif A3G = inhibitors of Vif binding to APOBEC3G peptide, primary screen, biochemical, TR-FRET, GST-Vif 1-94, biotin-A3G peptide, dose response retest (AID 1117319); TR-FRET GST-Vif / biotin-A3G peptide binding; higher % means a stronger effect; test concentration not given here; strong numbers were not always called active; inhibition, %; hits with a dose series show IC50 in µM; actives 0.57% (n = 260,000);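 active = above the screen mean plus three standard deviations and confirmed in dose response; inconclusive = results disagree or hit not tested in dose response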;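 also: Vif residues 1-94 fused to GST binding biotinylated APOBEC3G peptide 110-148; 0% = full assay without inhibitor and 100% = GST in place of GST-Vif; retest series ran down from 100 µM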
# E coli growth = E. coli growth inhibition, primary screen, OD600; Escherichia coli growth, 23 h; hits give low values; OD600 absorbance (no concentration beside the values); AID 1053175, 2014; actives 0.21% (n = 330,000);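 active = OD600 absorbance below the run mean of sample wells minus 3.6 SD, in any replicate, cut at about 0.56 in these data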;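 also: stock transfer was 300 nL into about 60 µL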
# MLL AF4-AF9 inh = inhibitors of AF4 peptide binding to AF9, primary screen, biochemical, AlphaScreen, biotin-AF4 peptide, FLAG-AF9, single point. Protein AF-9 (Homo sapiens), P42568. inhibition, % at 10 µM. actives 0.47% (n = 350,000). AID 651704, 2012;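 active = every replicate reaching a set inhibition limit, whatever the replicate mean, cut at about 25% in these data; inconclusive = mean inhibition reaches that limit but some replicates miss it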;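 also: 0% = plate neutral control median and 100% = total signal loss; the record names both 10 and 1 µM as test concentration; the first replicate is given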
# rRNA inh HTS = reduced GFP signal of wild-type E. coli, primary screen, bacterial rRNA inhibitor project, GFP/RFP fluorescence, OD600, single point; E. coli WT GFP vs humanized-ribosome RFP mutants, 24 h; hits give low values; DMSO median 0, no signal -100; GFP signal change (wild-type ribosome), % (concentration not given with the values); actives 1.6% (n = 350,000);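 active = significant combined selectivity score with lowered wild-type GFP, culture density cut under 30%, mutant RFP and density less affected; inactive = any of these conditions unmet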; also: one replicate is shown; some compounds called inactive have numbers as strong as hits
# rRNA inh HTS OD600 = second read-out of rRNA inh HTS, no call of its own (marks repeat the call); OD600 change, %; measured here: OD600 growth;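 optical density of the mix in the first replicate; 0 = DMSO median and -100 = no signal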
# rRNA inh HTS RFP = further read-out of rRNA inh HTS, marked with its call; RFP signal change, %; measured here: RFP humanized mutant strains;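 first replicate; 0 = DMSO median and -100 = no signal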
# * = called active by the depositor; i = inactive; ? = inconclusive; / = no result given.
SMILES,ALR inh,HNF4A DNA FP,FGF22 binding,Vif A3G,E coli growth,MLL AF4-AF9 inh,rRNA inh HTS,rRNA inh HTS OD600,rRNA inh HTS RFP
C[C@@H]1CCCCO[C@@H](CN(C)C(=O)C2CCCCC2)[C@H](C)CN([C@H](C)CO)C(=O)c2cc(NS(=O)(=O)c3ccccc3)ccc2O1,/,/,i,/,/,2.9,-3,-8,1.5
COC(=O)c1[nH]c2ccccc2c1NC(=O)CN1CCCCCC1,3,4.2,/,4%,0.73,/,/,/,/
O=C(C[C@H]1C[C@@H]2c3cc(NS(=O)(=O)c4ccc(F)cc4)ccc3O[C@@H]2[C@@H](CO)O1)NCc1ccccn1,/,/,i,/,/,0.4,-2,-4,-0.6
CCc1c(C)nc2c(C#N)c(C)[nH]n2c1=O,-12,-3.2,/,9%,0.71,/,/,/,/
CN(C1CCS(=O)(=O)C1)S(=O)C12CC3CC(CC(C3)C1)C2 (configuration not stated),-8,-1.1,/,?,0.77,/,/,/,/
CC[n+]1c(/C=C/c2c[nH]c3ccccc23)ccc2cc(C)ccc21,/,/,i,/,0.46*,26*,50,-75,52
CC1CCN(C(=O)COC(=O)c2n[nH]c(=O)c3ccccc23)CC1,-2,2.3,i,13%,0.66,-1.5,3,4,-0.1
O=CNc1cc(-c2ccc(C(=O)N3CCOCC3)cc2)cn2c(-c3ccc(F)cc3)cnc12,/,-1.5,i,/,/,6.8,2,-4,11
Cc1ccc(-c2cnc3c(c2)C(=O)N([C@H](C)CO)C[C@H](C)[C@H](CN(C)S(C)(=O)=O)O3)cc1,/,/,i,/,/,-7.1,2,7,-3.5
O=c1[nH]c(=O)c2[nH]c(=S)[nH]c2[nH]1,/,-3.4,i,-2%,0.69,-6.5,11,10,0.4
CN1CCN(Cc2nc3ccccc3c(=O)n2Cc2nc(-c3ccc([N+](=O)[O-])cc3)cs2)CC1,2,0.3,/,7%,0.71,/,/,/,/
CC(C)C(=O)Nc1ccc(NC(=O)c2ccccc2Cl)nc1,-2,2.1,/,3%,0.74,/,/,/,/
COC(=O)CNC(=O)c1sc2ncn(CC(=O)Nc3ccc(C)c(Cl)c3)c(=O)c2c1C,-13,3.0,i,-14%,0.73,0.5,-2,-2,-2.8
CC(C)=CCC[C@H](C)CC1Cc2[nH]c(=S)[nH]c(=O)c2C(c2ccc(F)cc2)O1 (some centres not stated),/,-1.4,i,/,/,-4.2,0,-17,-0.4
COc1ccc(NC(=O)Nc2nc(C(N)C3CCCCC3)cs2)cc1 (configuration not stated),/,-0.6,i,/,/,5.1,-7,-16,5.3
CCCC(=O)Nc1sc2c(c1C#N)CCCC2,-7,-1.5,/,-7%,0.68,/,/,/,/
C[C@@H]1CCCCO[C@H](CN(C)C(=O)Cc2ccccc2)[C@H](C)CN([C@H](C)CO)C(=O)c2cc(NS(=O)(=O)c3ccccc3)ccc2O1,/,/,i,/,/,-1.2,0,-11,4.7
CS(=O)(=O)c1ccc(N2CCN(C3CC(=O)NC3=O)CC2)cc1 (configuration not stated),-30,-1.5,/,0%,0.75,/,/,/,/
C[C@H](CO)N1C[C@H](C)[C@@H](CN(C)C(=O)Nc2cccc3ccccc23)Oc2c(NC(=O)c3ccncc3)cccc2C1=O,/,/,i,/,/,-0.5,-1,2,-0.3
CCOC(=O)c1ccccc1NC(=O)COC(=O)c1c(CC)noc1C,-19,-2.2,i,-4%,0.69,-9.3,-13,-35,-3.3
Cc1cc(F)ccc1NC(=O)CCc1ccc(S(=O)(=O)N2CCOCC2)cc1,0,1.9,i,0%,0.66,3.1,10,8,0.2
CCOc1cc(C=NN2CCCCCC2)ccc1O,/,2.6,i,-5%,0.69,17,30,19,2.2
CCOc1ccc(N2CC(NC(=O)c3ccc4ccccc4c3)CC2=O)cc1 (configuration not stated),/,0.4,/,5%,0.65,-1.8,1,-1,-1.8
Cc1ccc(S(=O)(=O)NC2OC(=O)C(Cl)=C2Cl)cc1 (configuration not stated),26,-0.1,/,5%,0.65,/,/,/,/
O=C(C1CC1)N1CC2(C1)[C@H](c1ccccc1)[C@@H](CO)N2S(=O)(=O)c1ccccc1,/,/,i,/,/,-3.4,1,7,-0.5
CCOC(=O)C1=C(C)NC(C)=C(C(=O)OCC)C1C(=O)OCC(=O)N(CC)C1CCS(=O)(=O)C1 (configuration not stated),-2,2.3,i,13%,0.7,-0.8,8,6,0.7
CCCCn1c(SCC(=O)N(CC)C2CCS(=O)(=O)C2)nnc1C(CC)N(C)C (configuration not stated),3,-3.3,/,-7%,0.71,/,/,/,/
CCCn1nc(C(=O)OCC(=O)Nc2cccc(S(N)(=O)=O)c2)c2ccccc2c1=O,/,-4.2,i,-7%,0.7,1.7,5,5,3.0
CCCCn1c(SCC(=O)Nc2ccccc2C(F)(F)F)nc2ccsc2c1=O,-12,0.8,/,-5%,0.73,/,/,/,/
Cn1/c(=N/N=C/c2ccc(N3CCOCC3)cc2)sc2ccccc21,6,0.6,i,-4%,/,-1.7,-6,0,-1.3
O=C(Cc1ccc(Cl)cc1)NC(=S)Nc1ccccc1N1CCOCC1,0,0.2,/,/,0.68,/,/,/,/
CCCCn1nnnc1SCC(=O)Nc1ccc(F)cc1,1,1.3,/,-9%,0.68,/,/,/,/
COC(=O)c1sccc1-c1ccc(/C=N/OC(=O)c2ccccc2)o1,-2,1.5,/,-21%,/,/,/,/,/
Cc1ccc(Cl)c2sc(NC(=O)C3CC3)nc12,-1,1.4,i,/,0.71,9.2,3,8,-3.4
O=C(CN(C1CCCCC1)S(=O)(=O)c1ccc(F)cc1)NCC1CCCO1 (configuration not stated),/,0.2,i,/,/,5.4,4,7,-1.5
COCCCNC1=C(Cl)C(=O)c2ccccc2C1=O,-45,1.3,i,-6%,0.64,8.9,-40*,-11*,-2.0*
CC(=O)c1nn(-c2cccc(Br)c2)cc1C(=O)c1ccc2ccccc2c1,-1,1.7,/,8%,0.69,/,/,/,/
COc1ccc(CN(C)C[C@H]2Oc3c(NS(=O)(=O)c4ccc(C)cc4)cccc3C(=O)N([C@H](C)CO)C[C@@H]2C)cc1,/,/,i,/,/,0.6,4,8,-1.8
COc1cc(C2c3c(oc4ccccc4c3=O)C(=O)N2Cc2ccncc2)ccc1O (configuration not stated),/,0.7,/,1%,0.73,/,/,/,/
CCCC(C)CO (configuration not stated),-17,2.4,i,/,0.66,/,4,0,-0.3
COc1ccc(C(Nc2ccc(S(=O)(=O)N3CCOCC3)cc2)C(=O)NCCC(C)C)cc1OC (configuration not stated),-2,2.8,i,/,0.67,-3.1,4,-1,0.2
COCn1ccnc1C(O)(c1ccc(OC)cc1)c1ccc(OC)cc1,4,0.3,/,-11%,0.74,/,/,/,/
CCOC(=O)C(C)Sc1nc(-c2ccccc2)nc2ccccc12 (configuration not stated),-3,-4.5,i,-16%,0.7,-11,4,-3,-1.5
O=C(CSc1ncnc2c1nnn2Cc1ccccc1F)NCC1CCCO1 (configuration not stated),23,2.8,i,/,0.73,-2.4,8,3,1.8
O=C(CSc1nnc(CN2CCCC2)n1-c1ccccc1)c1ccc2c(c1)OCO2,9,4.4,i,-11%,0.65,1.8,-5,4,5.3
Cc1noc(C)c1NC(=O)N(C)C[C@H]1Oc2ccc(NS(=O)(=O)c3c(C)noc3C)cc2CC(=O)N([C@@H](C)CO)C[C@H]1C,/,/,i,/,/,-4.8,4,0,-0.9
COc1cc(C2SC(C)C(=O)N2CCc2ccccc2)cc(OC)c1OC (configuration not stated),-3,0.1,i,/,0.68,-3.2,-16,-23,-9.2
C[C@@H]1CN([C@@H](C)CO)C(=O)c2cc(C#C[C@@H](C)O)cnc2O[C@H]1CN(C)C(=O)CN1CCOCC1,/,/,i,/,/,-2.3,0,4,-3.5
O=C(NCc1nnc(SCC(=O)N2CCCc3ccccc32)o1)c1ccccc1F,-3,7.1,i,4%,0.66,-1.9,1,-6,1.2
CCCN1C(=O)N(c2cccc(C)c2)C(C)(O)CC1(C)C (configuration not stated),-13,1.9,i,/,0.63,-0.9,3,10,0.2

# Entries listed so far that have an NH in an aromatic ring:
SMILES,ALR inh,HNF4A DNA FP,FGF22 binding,Vif A3G,E coli growth,MLL AF4-AF9 inh,rRNA inh HTS,rRNA inh HTS OD600,rRNA inh HTS RFP
COC(=O)c1[nH]c2ccccc2c1NC(=O)CN1CCCCCC1,3,4.2,/,4%,0.73,/,/,/,/
CCc1c(C)nc2c(C#N)c(C)[nH]n2c1=O,-12,-3.2,/,9%,0.71,/,/,/,/
CC[n+]1c(/C=C/c2c[nH]c3ccccc23)ccc2cc(C)ccc21,/,/,i,/,0.46*,26*,50,-75,52
CC1CCN(C(=O)COC(=O)c2n[nH]c(=O)c3ccccc23)CC1,-2,2.3,i,13%,0.66,-1.5,3,4,-0.1
O=c1[nH]c(=O)c2[nH]c(=S)[nH]c2[nH]1,/,-3.4,i,-2%,0.69,-6.5,11,10,0.4
CC(C)=CCC[C@H](C)CC1Cc2[nH]c(=S)[nH]c(=O)c2C(c2ccc(F)cc2)O1 (some centres not stated),/,-1.4,i,/,/,-4.2,0,-17,-0.4

# (next part)
SMILES,ALR inh,HNF4A DNA FP,FGF22 binding,Vif A3G,E coli growth,MLL AF4-AF9 inh,rRNA inh HTS,rRNA inh HTS OD600,rRNA inh HTS RFP
COc1ccc(NC(=S)N2CCC(C(O)(c3ccccc3)c3ccccc3)CC2)cc1,17,0.5,/,/,0.66,/,/,/,/
COc1ccccc1C(=O)Nc1ccc2c(c1)OC[C@@H](C)N(C)C[C@@H](C)[C@@H](OC)CN(C)C2=O,/,/,i,/,/,-0.3,2,2,-1.3
O=C(c1ccncc1)N1CC2(C1)[C@H](c1ccccc1)[C@@H](CO)N2CC1CCCC1,/,/,i,/,/,-1.7,2,-2,-2.6
O=C1C=C(c2cccc(CO)c2)C[C@@H](c2ccc(Cl)cc2)C1,-2,3.4,i,/,/,2.8,-12,-26,-20
C=CCn1c(C)c(C(C)=O)c(N2CCOCC2)nc1=S,-7,2.8,/,5%,0.71,/,/,/,/
CCc1ccc(NS(=O)(=O)c2ccc(OC)c(C)c2)cc1,-14,2.4,/,4%,0.69,/,/,/,/
COc1ccc(NC(=S)NNC(=O)c2cccnc2)cc1OC,41,-3.7,i,11%,0.7,-2.4,10,12,2.7
COc1ccc(C(=O)N/C(=C/c2cccnc2)C(=O)NCc2ccco2)cc1OC,0,4.2,i,-8%,0.67,-3.7,15,16,1.2
C[C@H](CO)N1C[C@H](C)[C@@H](CN(C)CC2CC2)Oc2ccc(NC(=O)CCCN(C)C)cc2C1=O,/,/,i,/,/,-3.6,3,7,-4.1
COc1ccc(/C(C)=N/Nc2nc3ccccc3n3cnnc23)cc1OC,/,/,i,3%,/,-1.2,9,2,1.5
COCC(=O)Nc1ccc2c(c1)OC[C@@H](C)N(Cc1ccccc1OC)C[C@H](C)[C@@H](OC)CN(C)C2=O,/,/,i,/,/,1.2,2,5,-0.3

# A portion of the library. The share of hits here may be higher or lower than overall.
